Ran FRET: inhibitors of Ran–importin-beta complex formation, primary screen, biochemical, CFP-Ran/YFP-importin-beta FRET, RCC1, cell-free (AID 434961); CFP-Ran/YFP-importin-beta FRET, cell-free; hits give high values; inhibition, %; actives 0.2% (n = 7,700);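 active = more than half of the replicate wells above 15% inhibition; inconclusive = exactly half above it; inactive = fewer than half above it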;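 note: 0% = DMSO wells and 100% inhibition = RanGDP control wells on each plate; stock of unstated strength diluted about 400-fold; mean of two wells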
Active calls of the source: *; ? = inconclusive. Some of the compounds tested; count on the stated rates, not on these rows.

Start of the data: the first two entries as a preview:
Ran FRET	smiles
-0.3	C[C@H](CO)N1C[C@H](C)[C@H](CN(C)C(=O)NC2CCCCC2)Oc2c(NC(=O)c3nc4ccccc4s3)cccc2C1=O
1.8	COc1ccc(CN(C)C[C@H]2Oc3c(NC(=O)Nc4c(C)noc4C)cccc3C(=O)N([C@H](C)CO)C[C@H]2C)cc1

The list itself, previewed entries included:
Ran FRET	smiles
-0.3	C[C@H](CO)N1C[C@H](C)[C@H](CN(C)C(=O)NC2CCCCC2)Oc2c(NC(=O)c3nc4ccccc4s3)cccc2C1=O
1.8	COc1ccc(CN(C)C[C@H]2Oc3c(NC(=O)Nc4c(C)noc4C)cccc3C(=O)N([C@H](C)CO)C[C@H]2C)cc1
?	C[C@@H]1CN([C@@H](C)CO)C(=O)c2cccc(NS(=O)(=O)c3ccc(Cl)cc3)c2O[C@@H]1CN(C)C
4.9	C[C@H](CO)N1C[C@H](C)[C@H](CN(C)S(=O)(=O)c2ccccc2)Oc2ncccc2C1=O
0.3	C[C@@H]1CCCCO[C@@H](CN(C)C(=O)c2ccccc2)[C@@H](C)CN([C@H](C)CO)C(=O)c2cc(NS(=O)(=O)c3cn(C)cn3)ccc2O1
3.9	C[C@H]1CN([C@@H](C)CO)C(=O)c2cccc(NC(=O)c3cnccn3)c2O[C@H]1CN(C)C(=O)NC1CCCCC1
-4.1	CCCC(O)C#Cc1cnc2c(c1)C(=O)N([C@H](C)CO)C[C@H](C)[C@H](CN(C)Cc1ccccc1)O2 (stereo not given in full)
-0.8	C[C@@H]1CN([C@H](C)CO)C(=O)Cc2cc(NC(=O)NC3CCCCC3)ccc2O[C@H]1CN(C)Cc1ccc(C(=O)O)cc1
0.7	C[C@H]1CN([C@@H](C)CO)C(=O)CCCn2cc(nn2)CO[C@H]1CN(C)Cc1ccc(C(F)(F)F)cc1
2.9	C[C@@H]1CN([C@H](C)CO)C(=O)c2cccc(NC(=O)NC3CCCCC3)c2O[C@H]1CN(C)Cc1ccncc1
3.8	C[C@@H]1CN([C@H](C)CO)C(=O)c2cccc(NC(=O)c3ccc(-c4nccs4)cc3)c2O[C@@H]1CN(C)C(=O)NC1CCCCC1
-1.7	C[C@@H]1CN([C@H](C)CO)C(=O)Cc2cc(NC(=O)Nc3ccccc3)ccc2O[C@H]1CN(C)CC1CC1
0.0	C[C@H]1CN([C@@H](C)CO)C(=O)c2cc(NS(=O)(=O)c3ccccc3)ccc2O[C@H]1CN(C)C
-2.3	CC(C)NC(=O)Nc1ccc2c(c1)C(=O)N([C@H](C)CO)C[C@H](C)[C@@H](CN(C)C(=O)Cc1ccccc1)OCCCC[C@@H](C)O2
-1.6	COc1ccc(S(=O)(=O)Nc2ccc3c(c2)C(=O)N([C@@H](C)CO)C[C@@H](C)[C@@H](CN(C)S(=O)(=O)c2ccc(OC)cc2)O3)cc1
0.5	CC(C)NC(=O)Nc1ccc2c(c1)C(=O)N([C@H](C)CO)C[C@@H](C)[C@H](CN(C)C(=O)CCCN(C)C)OCCCC[C@@H](C)O2
?	Cc1noc(C)c1S(=O)(=O)N(C)C[C@@H]1OCCCC[C@H](C)Oc2ccc(N(C)C)cc2C(=O)N([C@H](C)CO)C[C@@H]1C
?	CNC[C@@H]1Oc2ccc(NC(=O)Cc3ccccc3)cc2CC(=O)N([C@H](C)CO)C[C@H]1C
0.9	Cc1noc(C)c1S(=O)(=O)Nc1ccc2c(c1)C(=O)N([C@H](C)CO)C[C@H](C)[C@@H](CN(C)C(=O)Nc1ccccc1)O2
0.3	C[C@@H]1CCCCO[C@@H](CN(C)S(=O)(=O)c2cccs2)[C@H](C)CN([C@H](C)CO)C(=O)c2cc(N(C)C)ccc2O1
8.0	COc1ccc(S(=O)(=O)N(C)C[C@H]2Oc3ccc(NC(=O)Nc4cccc5ccccc45)cc3CC(=O)N([C@H](C)CO)C[C@H]2C)cc1
1.8	C[C@@H]1CN([C@@H](C)CO)C(=O)c2cccc(NC(=O)c3ccc(-c4nccs4)cc3)c2O[C@@H]1CN(C)S(=O)(=O)c1cccs1
4.5	C[C@H]1CN([C@@H](C)CO)C(=O)c2cc(NC(=O)NC3CCCCC3)ccc2O[C@H]1CN(C)S(=O)(=O)c1cn(C)cn1
-2.2	COc1ccc(S(=O)(=O)Nc2cccc3c2O[C@@H](CN(C)S(=O)(=O)c2cn(C)cn2)[C@@H](C)CN([C@@H](C)CO)C3=O)cc1
1.8	COc1ccc(CN(C)C[C@H]2Oc3ccc(NC(=O)Cc4ccccc4)cc3CC(=O)N([C@H](C)CO)C[C@@H]2C)cc1
-1.9	Cc1noc(C)c1NC(=O)Nc1ccc2c(c1)CC(=O)N([C@@H](C)CO)C[C@H](C)[C@H](CN(C)S(=O)(=O)c1ccccc1)O2
-1.5	CCCC(O)C#Cc1cnc2c(c1)C(=O)N([C@H](C)CO)C[C@H](C)[C@H](CN(C)C(=O)Nc1ccccc1)O2 (stereo not given in full)
?	C[C@H]1CN([C@@H](C)CO)C(=O)c2cccc(NC(=O)Nc3ccc(C(F)(F)F)cc3)c2O[C@@H]1CN(C)S(=O)(=O)c1cccs1
-0.3	COc1ccc(NC(=O)Nc2ccc3c(c2)C(=O)N([C@@H](C)CO)C[C@H](C)[C@H](CN(C)S(=O)(=O)c2ccc(OC)cc2)O3)cc1
-1.1	CNC[C@@H]1Oc2ccc(NC(=O)c3ccncc3)cc2CC(=O)N([C@H](C)CO)C[C@@H]1C
-7.3	C[C@H](CO)N1C[C@H](C)[C@H](CN(C)S(=O)(=O)c2ccccc2)Oc2ccc(NC(=O)CCC(F)(F)F)cc2CC1=O
-3.0	Cc1noc(C)c1S(=O)(=O)N(C)C[C@@H]1OCCCC[C@@H](C)Oc2ccc(NC(=O)C3CCCCC3)cc2C(=O)N([C@@H](C)CO)C[C@@H]1C
0.5	Cc1noc(C)c1S(=O)(=O)Nc1ccc2c(c1)CC(=O)N([C@H](C)CO)C[C@@H](C)[C@@H](CN(C)C(=O)Nc1ccccc1)O2
1.8	C[C@H](CO)N1C[C@H](C)[C@H](CN(C)Cc2ccc(C(=O)O)cc2)Oc2c(NS(=O)(=O)c3ccc(Cl)cc3)cccc2C1=O
2.1	COc1ccc(CN(C)C[C@@H]2Oc3ccc(NS(=O)(=O)c4ccc(OC)cc4)cc3C(=O)N([C@H](C)CO)C[C@H]2C)cc1
-1.4	CC(C)NC(=O)N(C)C[C@@H]1Oc2c(NC(=O)C3CC3)cccc2C(=O)N([C@@H](C)CO)C[C@H]1C
?	Cc1noc(C)c1S(=O)(=O)N(C)C[C@H]1Oc2ccc(NC(=O)C3CCCCC3)cc2CC(=O)N([C@H](C)CO)C[C@H]1C
-5.0	COc1ccc(S(=O)(=O)N(C)C[C@H]2Oc3c(NC(=O)NC4CCCCC4)cccc3C(=O)N([C@@H](C)CO)C[C@@H]2C)cc1
-2.8	C[C@H]1CCCCO[C@H](CN(C)C(=O)c2ccccc2)[C@@H](C)CN([C@@H](C)CO)C(=O)c2cc(NS(C)(=O)=O)ccc2O1
-2.0	C[C@@H]1CN([C@@H](C)CO)C(=O)c2cccc(N(C)C)c2O[C@@H]1CN(C)CC1CC1
-0.7	COc1ccc(NC(=O)N(C)C[C@H]2Oc3c(cccc3N(C)C)C(=O)N([C@H](C)CO)C[C@@H]2C)cc1
-0.9	Cc1noc(C)c1NC(=O)Nc1ccc2c(c1)C(=O)N([C@H](C)CO)C[C@H](C)[C@H](CN(C)C(=O)NC1CCCCC1)O2
-1.2	C[C@@H]1CCCCO[C@@H](CN(C)C)[C@H](C)CN([C@H](C)CO)C(=O)c2cc(NC(=O)Nc3ccc4c(c3)OCO4)ccc2O1
-1.3	CNC[C@@H]1Oc2c(NC(=O)c3nc4ccccc4s3)cccc2C(=O)N([C@@H](C)CO)C[C@@H]1C
?	C[C@H]1CN([C@@H](C)CO)C(=O)CCCn2cc(nn2)CO[C@H]1CN(C)Cc1ccc2c(c1)OCCN2C
-2.8	Cc1noc(C)c1S(=O)(=O)Nc1cccc2c1O[C@@H](CN(C)Cc1ccc(C(F)(F)F)cc1)[C@@H](C)CN([C@H](C)CO)C2=O
0.3	C[C@H](CO)N1C[C@H](C)[C@H](CN(C)C)Oc2ccc(NC(=O)CCN3CCOCC3)cc2C1=O
0.1	C[C@@H]1CN([C@H](C)CO)C(=O)c2cc(NC(=O)c3ccncc3)ccc2O[C@@H]1CN(C)C
-3.4	C[C@@H]1CN([C@H](C)CO)C(=O)CCCn2cc(nn2)CO[C@H]1CN(C)C(=O)Nc1cccc2ccccc12
5.8	C[C@@H]1CN([C@@H](C)CO)C(=O)Cc2cc(NS(C)(=O)=O)ccc2O[C@H]1CN(C)C(=O)Nc1ccc(C(F)(F)F)cc1
-1.7	Cc1noc(C)c1S(=O)(=O)Nc1ccc2c(c1)C(=O)N([C@H](C)CO)C[C@@H](C)[C@H](CN(C)C)O2
0.6	C[C@@H]1CN([C@@H](C)CO)C(=O)c2cccc(NS(=O)(=O)c3ccccc3)c2O[C@@H]1CN(C)C
-4.3	C[C@H]1CCCCO[C@@H](CN(C)Cc2ccccc2)[C@@H](C)CN([C@@H](C)CO)C(=O)c2cc(NS(C)(=O)=O)ccc2O1
7.2	CC(C)NC(=O)N(C)C[C@@H]1OCCCC[C@H](C)Oc2ccc(NC(=O)Nc3cccc4ccccc34)cc2C(=O)N([C@H](C)CO)C[C@@H]1C
2.4	COc1ccc(CN(C)C[C@@H]2Oc3ccc(NS(=O)(=O)c4ccc(OC)cc4)cc3C(=O)N([C@@H](C)CO)C[C@@H]2C)cc1
-4.5	C[C@H]1CN([C@@H](C)CO)C(=O)c2cccc(NS(=O)(=O)c3cn(C)cn3)c2O[C@@H]1CN(C)Cc1ccc2c(c1)OCO2
4.7	C[C@@H]1CN([C@@H](C)CO)C(=O)Cc2cc(NC(=O)Nc3ccc4c(c3)OCO4)ccc2O[C@@H]1CN(C)C(=O)Nc1ccc2c(c1)OCO2
-1.7	Cc1noc(C)c1S(=O)(=O)Nc1ccc2c(c1)C(=O)N([C@@H](C)CO)C[C@H](C)[C@@H](CN(C)C(=O)NC1CCCCC1)O2
0.9	C[C@H](CO)N1C[C@H](C)[C@H](CN(C)S(=O)(=O)c2ccc(Cl)cc2)Oc2ccc(NC(=O)NC3CCCCC3)cc2C1=O
?	C[C@H](CO)N1C[C@H](C)[C@@H](CN(C)C(=O)NC2CCCCC2)Oc2ccc(NS(C)(=O)=O)cc2C1=O

Following part.
Ran FRET	smiles
-5.0	CC(C)NC(=O)Nc1ccc2c(c1)C(=O)N([C@@H](C)CO)C[C@@H](C)[C@@H](CN(C)S(=O)(=O)c1ccccc1)OCCCC[C@H](C)O2
9.7	Cc1noc(C)c1NC(=O)N(C)C[C@@H]1OCCCC[C@@H](C)Oc2ccc(NS(=O)(=O)c3cccs3)cc2C(=O)N([C@H](C)CO)C[C@H]1C
2.3	C[C@@H]1CN([C@H](C)CO)C(=O)c2cc(NC(=O)C3CC3)ccc2O[C@H]1CN(C)C(=O)Nc1cccc2ccccc12
-3.4	C[C@@H]1CN([C@H](C)CO)C(=O)c2cccc(NC(=O)Nc3ccc(C(F)(F)F)cc3)c2O[C@H]1CN(C)C(=O)Nc1ccc(F)cc1
2.7	CC(C)NC(=O)Nc1ccc2c(c1)C(=O)N([C@H](C)CO)C[C@H](C)[C@H](CN(C)Cc1ccccc1)OCCCC[C@H](C)O2
-1.6	C[C@@H]1CN([C@H](C)CO)C(=O)c2cc(NC(=O)CCC(F)(F)F)ccc2O[C@@H](C)CCCCO[C@H]1CN(C)Cc1ccccc1
2.3	C[C@@H]1CN([C@H](C)CO)C(=O)Cc2cc(NC(=O)Nc3cccc4ccccc34)ccc2O[C@@H]1CN(C)S(=O)(=O)c1cn(C)cn1
-2.8	C[C@H](CO)N1C[C@H](C)[C@@H](CN(C)C(=O)NC2CCCCC2)Oc2c(NC(=O)c3ccc(-c4nccs4)cc3)cccc2C1=O
-2.4	C[C@@H]1CN([C@@H](C)CO)C(=O)c2cccc(NC(=O)NC3CCCCC3)c2O[C@@H]1CN(C)C(=O)NC1CCCCC1
-1.6	C[C@H](CO)N1C[C@H](C)[C@@H](CN(C)C(=O)CCCN(C)C)OCCCC[C@H](C)Oc2ccc(N(C)C)cc2C1=O
0.0	C[C@H](CO)N1C[C@H](C)[C@@H](CN(C)C)OCCCC[C@H](C)Oc2ccc(NC(=O)c3ccccc3)cc2C1=O
2.3	CNC[C@@H]1OCCCC[C@@H](C)Oc2ccc(NS(=O)(=O)c3ccccc3)cc2C(=O)N([C@@H](C)CO)C[C@H]1C
-0.5	C[C@@H]1CN([C@@H](C)CO)C(=O)c2cc(N(C)C)ccc2O[C@H]1CN(C)C(=O)Nc1ccccc1
-14.9	C[C@@H]1CCCCO[C@H](CN(C)S(=O)(=O)c2cccs2)[C@H](C)CN([C@H](C)CO)C(=O)c2cc(N(C)C)ccc2O1
-0.9	COc1ccc(S(=O)(=O)N(C)C[C@@H]2Oc3ccc(NC(=O)CCCN(C)C)cc3CC(=O)N([C@H](C)CO)C[C@@H]2C)cc1
-1.8	C[C@@H]1CN([C@@H](C)CO)C(=O)CCCn2cc(nn2)CO[C@@H]1CN(C)Cc1ccc(Cl)c(Cl)c1
1.1	CC(C)NC(=O)N(C)C[C@@H]1OCCCC[C@@H](C)Oc2ccc(NC(=O)CCC(F)(F)F)cc2C(=O)N([C@H](C)CO)C[C@H]1C
-4.9	C[C@@H]1CN([C@@H](C)CO)C(=O)c2cc(NC(=O)C3CCCCC3)ccc2O[C@@H](C)CCCCO[C@@H]1CN(C)C
0.4	C[C@H](CO)N1C[C@H](C)[C@H](CN(C)C(=O)Nc2ccccc2)OCCCC[C@H](C)Oc2ccc(NS(C)(=O)=O)cc2C1=O

Ordered by value in Ran FRET (falling): 4 from the list above
Ran FRET	smiles
4.5	C[C@H]1CN([C@@H](C)CO)C(=O)c2cc(NC(=O)NC3CCCCC3)ccc2O[C@H]1CN(C)S(=O)(=O)c1cn(C)cn1
-1.8	C[C@@H]1CN([C@@H](C)CO)C(=O)CCCn2cc(nn2)CO[C@@H]1CN(C)Cc1ccc(Cl)c(Cl)c1
-2.2	COc1ccc(S(=O)(=O)Nc2cccc3c2O[C@@H](CN(C)S(=O)(=O)c2cn(C)cn2)[C@@H](C)CN([C@@H](C)CO)C3=O)cc1
-2.8	C[C@H]1CCCCO[C@H](CN(C)C(=O)c2ccccc2)[C@@H](C)CN([C@@H](C)CO)C(=O)c2cc(NS(C)(=O)=O)ccc2O1

Bioassay records (PubChem)
